Screens from PubChem.
Sa helicase inh: S. aureus DNA helicase inhibition. purified S. aureus helicase, fluorescence unwinding assay; about half of the hits fall short of the stated cut. inhibition, %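 (tested at about 80 µM)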. 120,000 tested, 0.05% active. AID 485395;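 active = both duplicates at 50% or more, or one of them with a favoured structure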;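 note: 0% = mean of negative control wells and 100% = mean of positive control wells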
MgrA DNA FP: alters Staphylococcus aureus MgrA binding to DNA; fluorescence polarization; AID 602314; 84,000 tested, 0.13% active; inhibition, %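 (about 10 µg/mL by stock and volumes)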;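 active = above 50% in either of two replicates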;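 note: 0% = protein plus DNA without compound and 100% = DNA alone without protein; higher means less MgrA bound to DNA so lower polarization; one replicate is shown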
* = called active by the depositor; . = no result given. This is a subset, so the mix of outcomes need not match the whole.

item	structure	Sa helicase inh	MgrA DNA FP
1	NNc1ccc2nnc(C(F)(F)F)n2n1	6	-0.2
2	O=C(CCc1c(-c2ccc(F)cc2)[nH]c2ccc(F)cc12)N1CCN(C2CCS(=O)(=O)C2)CC1 (configuration not stated)	9	.
3	CCc1ccc(Nc2cc(=O)oc3ccccc23)cc1	1	3.1
4	OCCNC(=S)Nc1ccc(Cl)cc1	0	.
5	Cc1cccn2cc(CNC(=O)CC3CCCC3)nc12	10	1.1
6	CCc1ccccc1Nc1nn2c(=O)c3ccc(C(=O)NCC4CCCO4)cc3nc2s1 (configuration not stated)	-4	.
7	O=C(O)CCC(C(=O)O)N1C(=O)c2ccccc2C1=O (configuration not stated)	.	1.4
8	CC1CCCCN1C(=O)Nc1cn(C)c(=O)c2ccccc12 (configuration not stated)	-22	.
9	Cc1cccc(CC(=O)N2CCN(c3ccccc3)CC2)c1	20	2.0
10	CCN(CC)c1ccc(N=Cc2ccc3ccccc3n2)cc1	17	-0.7
11	COc1ccccc1C(=O)Nc1ccc2nc(C)sc2c1	-22	-2.0
12	COc1ccccc1Nc1cc(C(=O)NCCN2CCOCC2)c2ccccc2n1	-34	.
13	Cc1ccc(Cn2cc(CCCC(=O)N3CCCC3)c3ccccc32)cc1	0	0.9
14	Cc1ccc2onc(CNC(=O)NCCCN3CCOCC3)c2c1	-15	.
15	CO/N=C(\C(=O)Sc1nc2ccccc2s1)c1csc(N)n1	-4	.
16	CC1Cc2ccccc2N1S(=O)(=O)c1cc(Br)cnc1N (configuration not stated)	11	0.2
17	COc1ccc(C2C3C(=O)NC(=O)C3ON2c2ccccc2)cc1 (configuration not stated)	5	1.2
18	Cc1ccccc1NC(=S)N(C(C)C)C1CCN(C(C)C)CC1	5	.
19	COc1cc(C(=O)OC(C)C(=O)N2CCC(C)CC2)cc(CN2C(=O)c3ccccc3C2=O)c1OC (configuration not stated)	9	.
20	CCN(Cc1ccccc1)C(=O)c1ccc(C)cc1	0	0.5
21	O=C(O)COc1ccc(-c2nnn(Cc3ccc(Cl)cc3Cl)n2)cc1	6	-0.2
22	COc1ccc(C2C(C#N)=C(C)NC(C)=C2C#N)c(OC)c1	3	.
23	Cc1cccc(OCCn2cc(/C=N/n3cnnc3)c3ccccc32)c1	9	0.5
24	COc1ccc(C(=O)CN2C=NS(=O)(=O)c3ccccc32)cc1	-3	.
25	CCS(=O)CC(=O)Nc1c(-c2ccccc2)oc2ccccc2c1=O (configuration not stated)	.	-0.9
26	Cc1ccsc1/C=N/NC(=O)Cc1cc(=O)[nH][nH]1	8	.
27	Cc1ccc(Nc2nnc(SCc3nc4sc(C(=O)O)c(C)c4c(=O)[nH]3)s2)cc1C	2	.
28	CN(C)/C(=N\O)c1nonc1N	3	-1.2
29	CCc1nnc(NC(=O)c2cc3ccccc3cc2OC)s1	17	.
30	Cc1cc(NC(=O)CSCc2ccccc2)no1	3	.
31	CCCCCC1C(=O)CCC1CC(=O)OC (configuration not stated)	-22	.
32	COC(=O)CC1=NN(c2nc3ccccc3[nH]2)C(=O)C1	-1	.
33	O=C(/C=C/c1ccco1)NC12CC3CC(CC(C3)C1)C2	-5	.
34	CN(C(=O)COC(=O)c1ccc(C#N)cc1)C1CCCCC1	2	-4.2
35	Cc1ccc(O)c(C2=Nc3ccccc3C2(C)C)c1	8	-1.4
36	COc1ccc(C(=O)CSc2n[nH]c(=O)n2-c2ccccc2)cc1	.	-0.8
37	FC(F)(F)c1cc(Cl)c2nsnc2c1	.	2.3
38	O=C(NCCO)C1=NN=CC1	11	-0.8
39	CC(=NCc1ccc2c(c1)OCO2)C1=C(O)c2ccccc2C1=O	10	3.6
40	CSc1nc(=O)c2cccnc2n1-c1ccc(C)cc1	.	2.4
41	O=C(Nc1ccc2nn(-c3ccccc3)nc2c1)c1cccnc1	-3	.
42	N#CC1(NC(Cc2ccccc2)c2ccccc2)CCCCCC1 (configuration not stated)	.	5.5
43	COc1ccccc1C(=O)CSc1ccccc1Cl	3	2.5
44	NNC(=O)CCCc1nc2ccccc2s1	4	.
45	O=C(CN1CCN(c2nc3ccccc3s2)CC1)Nc1ccc2c(c1)OCO2	-1	20

Ordered by count of non-hydrogen atoms (ascending): 6 of the compounds above
item	structure	Sa helicase inh	MgrA DNA FP
38	O=C(NCCO)C1=NN=CC1	11	-0.8
44	NNC(=O)CCCc1nc2ccccc2s1	4	.
35	Cc1ccc(O)c(C2=Nc3ccccc3C2(C)C)c1	8	-1.4
40	CSc1nc(=O)c2cccnc2n1-c1ccc(C)cc1	.	2.4
42	N#CC1(NC(Cc2ccccc2)c2ccccc2)CCCCCC1 (configuration not stated)	.	5.5
45	O=C(CN1CCN(c2nc3ccccc3s2)CC1)Nc1ccc2c(c1)OCO2	-1	20

Later entries:
item	structure	Sa helicase inh	MgrA DNA FP
46	Cc1nc(C(F)(F)F)ccc1C#N	.	-0.5
47	Cc1sc2ncnc(Sc3nnc(CN4CCCC4=O)o3)c2c1C	2	.
48	COc1ccc(-c2ccnc(SCC(=O)c3ccc(Cl)cc3)n2)cc1	-19	.
49	Cc1ccccc1/C=C1/Sc2ccccc2C1=O	.	-1.2
50	Cc1cccc(-c2nc(CNC(=O)c3ccco3)cs2)c1	9	1.6
51	CN(C)/N=C/C=C1\CCC(C(=O)Nc2ccccc2)=C1N1CCOCC1	10	.
52	Cc1csc(NC(=O)C2CCC(C)(C(=O)O)C2(C)C)n1 (configuration not stated)	3	.
53	CCN1CCN(C(c2cccs2)C(C)NS(=O)(=O)c2ccccc2)CC1 (configuration not stated)	-13	.
54	O=C(CSc1ccc2nnc(-c3cccnc3)n2n1)c1ccccc1	-2	.
55	Cc1cc(C)c(C#N)c(SC(C(=O)Nc2c(F)cccc2F)c2ccccc2)n1 (configuration not stated)	.	-1.8
56	Cn1c(C(=O)Nc2cnc3ccccc3c2)cc2c(=O)n(C)c3ccccc3c21	10	0.3
57	COC(=O)C1CN(Cc2ccccc2)CCC1=O (configuration not stated)	.	-0.8
58	O=C(Nc1ccc(S(=O)(=O)NCc2ccco2)cc1)c1ncoc1-c1ccc(Cl)cc1	-2	0.7
59	CC1CN(C(=O)c2cccc(S(=O)(=O)N3CCOCC3)c2)C(=NC2CCCCC2)S1 (configuration not stated)	-11	.
60	O=C(CCc1nc(-c2ccccc2F)no1)NCCN1CCc2ccccc2C1	6	.
61	COC(=O)c1nn(-c2ccc(OC)cc2)c(=O)c2c(N)sc(C)c12	-21	.
62	CCOC(=O)c1c(-c2ccc(C)o2)csc1NC(=O)COC(=O)C12CC3CC(CC(O)(C3)C1)C2	27	.
63	Clc1ccc(Sc2cccc(Cl)c2Cn2cccc2)cc1	.	-0.1
64	CCc1ccc(NC(=O)CCC(=O)c2ccccc2)cc1	14	0.5
65	COc1ccc(NC(=O)c2ccc3snnc3c2)cc1	9	.
66	Cc1ccc(Cn2c(C)cc(C)c(C#N)c2=O)cc1	-17	.
67	CCOC(=O)C1CCN(S(=O)(=O)c2c(C)n(C)c(=O)n(C)c2=O)CC1	-10	0.7
68	CC(=O)NC(=S)N[C@@H]1O[C@H](COC(C)=O)[C@@H](OC(C)=O)[C@H](OC(C)=O)[C@H]1OC(C)=O	-19	.
69	O=C(Nc1cc(Oc2ccc(F)cc2)cc([N+](=O)[O-])c1)c1sc2ccccc2c1Cl	.	-0.4
70	CN(C)CCN(Cc1ccc(Cl)cc1)c1ccccn1	.	5.4
71	COc1cccc(NC(=O)C(Sc2nnc(-c3ccccc3)o2)c2ccccc2)c1 (configuration not stated)	-11	.
72	O=C(CSCC(=O)Nc1ccccc1F)Nc1ccc2ccccc2c1	2	1.5
73	CSc1cccc(NC(C)C(=O)NCc2ccccc2)c1 (configuration not stated)	-5	.
74	CN(CC(=O)N1CCOCC1)c1ncnc2scc(-c3ccc(F)cc3)c12	-9	.
75	O=C1O[C@@H]2C[C@H]3C[C@@H]2[C@@H]1[C@H]3C(=O)N1CCCc2ccccc21	3	-1.8
76	CN(C)S(=O)(=O)c1ccc(=O)n(CC(=O)c2c[nH]c3ccccc23)c1	7	.
77	Cc1cc(C)cc(N(CC(=O)NCc2ccco2)C(=O)c2snc(C(N)=O)c2N)c1	-3	2.7
78	Cc1cc(Nc2ccc(F)cc2F)nc(N)n1	.	-2.4
79	CC1CCN(C(=O)CCC(=O)c2ccc3c(c2)OCCCO3)CC1	-2	.
80	CCOc1ccc2c(c1)c1nnc(SCC3CCCO3)nc1n2C (configuration not stated)	11	-1.1
81	CC(Oc1ccc(F)cc1)C(=O)NCCN1CCOCC1 (configuration not stated)	11	.
82	O=C(c1ccco1)N(c1ccccc1)c1ccccc1	.	-1.2
83	Cc1c(C(=O)Nc2cc(Cl)ccc2-n2cncn2)[nH]c2c1C(=O)CC(C)(C)C2	13	.
84	COc1ccc(CNCC2CCCO2)cc1 (configuration not stated)	19	.
85	O=C(CC1SC(=O)NC1=O)Nc1ccc(F)cc1 (configuration not stated)	-20	.
86	COc1ccccc1C1CC(=O)Nc2sc3c(C)c(C#N)c(N)nc3c21 (configuration not stated)	-17	2.9
87	CCN1C/C(=C\c2ccc(OC)cc2)C(=O)/C(=C/c2ccc(OC)cc2)C1	30	.
88	O=C(O)c1c(Cl)c(Cl)c(Cl)c(Cl)c1C(=O)N1CCCC1	11	-0.8
89	COc1cc(OC)cc(C(=O)Nc2ccc(CN3CCCCC3)cc2)c1	9	0.7
90	Cc1cc(=O)[nH]c(SCC(=O)c2ccc3c(c2)NC(=O)CO3)n1	12	.

Single values from the entries so far:
Result for compound 87 under Sa helicase inh: 30
Result for compound 89 under Sa helicase inh: 9
Result for compound 84 under Sa helicase inh: 19
Result for compound 82 under MgrA DNA FP: -1.2
Result for compound 77 under MgrA DNA FP: 2.7
Result for compound 78 under MgrA DNA FP: -2.4

(cont.)
item	structure	Sa helicase inh	MgrA DNA FP
91	COc1ccccc1NC(=S)NCc1ccncc1	.	3.2
92	O=C(NCc1ccco1)C(c1ccccc1)N(CCc1ccccc1)C(=O)Cn1nnc2ccccc21 (configuration not stated)	-13	1.4
93	N#C/C(=C\NC1CCN(Cc2ccccc2)CC1)S(=O)(=O)c1ccc(Cl)cc1	.	0.2
94	CSc1ccccc1C(=O)NCC(C)C	6	1.8
95	CCOC(=O)/C=C1\SCC(=O)N1CC(O)c1ccccc1 (configuration not stated)	-6	.
96	COc1cc(C)nc(NC(=O)Nc2cccc(Cl)c2)n1	20	.
97	Cc1ccc2nc(SC(C)C(=O)O)[nH]c2c1 (configuration not stated)	-7	-6.0
98	CC(OC(=O)c1cccc(Cl)c1)c1ccc[n+](C)c1 (configuration not stated)	.	-1.3
99	Cc1ccc(CNC(=O)c2oc3ccc(C)cc3c2C)cc1	5	.
100	COc1ccccc1OCCSc1nc2ccccc2o1	9	-2.0
101	CC(C)N1CCN(C(=O)c2ccco2)CC1	16	-1.9
102	COc1ccc(Cn2c3nc(C#N)c(C#N)nc3c3c(=O)[nH]c(C)nc32)cc1	-202	.
103	COCc1cc(O)c(O)c(O)c1-c1c(COC)cc(O)c(O)c1O	.	0.0
104	CSC(=NCc1cccnc1)NC#N	.	1.2
105	COc1ccc(CCN=C2SCCN2C(=O)c2ccc(C#N)cc2)cc1	5	.
106	CN(C1CCCCC1)S(=O)(=O)c1ccc(CNC(=O)c2ccccc2)s1	.	-2.0
107	Cc1ccc2nc(Cc3ccc(N)cc3)oc2c1	20	.
108	CCOc1ncnc2sc(-c3ccccc3)cc12	-6	.
109	Cc1cc(=O)[nH]c(O)c1C(=O)O	5	-3.2
110	Cc1ccsc1Cn1nccc1NC(=O)C1CC(=O)N(c2ccc3c(c2)OCCO3)C1 (configuration not stated)	8	.
111	CCCCn1c(SCC(=O)NC2CCCC2)nc2c(sc3ccccc32)c1=O	1	0.1
112	CC(C)CN(CC(C)C)S(=O)(=O)c1ccc(C(=O)Nc2nnc(-c3cccs3)o2)cc1	6	5.0
113	O=C(NC1CC1)C1C2C=CC3(CN(Cc4ccccc4Cl)C(=O)C13)O2 (configuration not stated)	5	0.6
114	O=C(Nc1ccccc1SCCS(=O)(=O)c1ccc(Cl)cc1)c1ccccc1Cl	.	-2.6
115	CC(=O)N/C(=C\c1cccs1)C(=O)O	-1	1.3
116	O=C(CSc1ccc2ccccc2c1)N1CCOCC1	-7	12
117	COC(=O)c1cc(OC)c(OC)c(OC)c1NS(=O)(=O)c1cc(OC)ccc1OC	.	-4.2
118	Cc1cc(NC(=O)CCC(=O)Nc2cc(C)on2)no1	11	7.0
119	CC(C)NC(=O)CSc1nnc(Cc2ccccc2)n1C	5	-1.8
120	Nc1ncnc2c1nc(N1CCOCC1)n2C1OC(CO)C(O)C1O (configuration not stated)	.	-1.7
121	CC(C)(C)S(=O)(=O)/C(C#N)=C/c1ccsc1	.	3.8
122	C/C(C#N)=C(/N)c1ccccc1	-10	-0.4
123	CCC(C)NC(=O)c1cccc(N2CCCC2=O)c1 (configuration not stated)	-11	.
124	CCC(=O)Nc1cccc(-c2nc3cccnc3s2)c1	1	.
125	Cc1ccccc1Cn1c(CCCO)nc2ccccc21	10	0.8
126	OC1CCCN(CC(O)COc2ccc(-c3ccccc3)cc2)C1 (configuration not stated)	-11	.
127	O=C(CSC1=Nc2ccccc2C2=NC(Cc3ccccc3)C(=O)N12)c1ccc(F)cc1 (configuration not stated)	3	1.2
128	O=S1(=O)CCC(NS(=O)(=O)c2ccc3c(c2)CCO3)C1 (configuration not stated)	.	-0.6
129	Cn1c(=O)c(-c2[nH][nH]c(=O)c2/C=C2/C=Nc3ccccc32)c(O)c2ccccc21	-5	2.5
130	CC(C)c1ccc(NC(=O)CN(C)S(=O)(=O)c2cnc[nH]2)cc1	7	.
131	COc1cc(Cl)ccc1S(=O)(=O)N1CCCN(S(=O)(=O)c2ccc(Cl)cc2OC)CC1	-1	.
